Screening data (PubChem)
Six1-Eya2 blk: blocks human Six1 binding to Eya2; AlphaScreen GST-Six1/His-Eya2 binding, biochemical; stronger effect = lower value; control for the full effect not named in the record; activity change, % (no concentration beside the values); 360,000 compounds, 0.56% hits; AID 651725; in the data active = activity change below about -65%; inconclusive = about -30% to -65%; inactive = above about -30%; note: % is set by controls: 0 for no effect and ±100 for the full control effect
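Six1/Eya2 binding was read as AlphaScreen signal after compounds were pinned into GST-Six1 plus His-tagged Eya2 (5X stock 250/500 nM) in pH 8.0 Tris/NaCl/TCEP buffer, beads added, then incubated 1 h, 37 C, dark.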
D2 potentiator: human D2 receptor positive allosteric modulation | DiscoveRx D2 beta-arrestin cells, luminescence, 90 min; 100% = 57 uM dopamine signal | potentiation, % (test concentration not listed) | AID 624464 | P14416 | 360,000 compounds, 0.23% hits; active = potentiation of 50% or more; inconclusive = 30% to 50%; inactive = 30% or less;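 note: compound concentration not given in the record; tested on top of an EC20 dose of dopamine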
Target sequence (P14416 whole entry, looked up): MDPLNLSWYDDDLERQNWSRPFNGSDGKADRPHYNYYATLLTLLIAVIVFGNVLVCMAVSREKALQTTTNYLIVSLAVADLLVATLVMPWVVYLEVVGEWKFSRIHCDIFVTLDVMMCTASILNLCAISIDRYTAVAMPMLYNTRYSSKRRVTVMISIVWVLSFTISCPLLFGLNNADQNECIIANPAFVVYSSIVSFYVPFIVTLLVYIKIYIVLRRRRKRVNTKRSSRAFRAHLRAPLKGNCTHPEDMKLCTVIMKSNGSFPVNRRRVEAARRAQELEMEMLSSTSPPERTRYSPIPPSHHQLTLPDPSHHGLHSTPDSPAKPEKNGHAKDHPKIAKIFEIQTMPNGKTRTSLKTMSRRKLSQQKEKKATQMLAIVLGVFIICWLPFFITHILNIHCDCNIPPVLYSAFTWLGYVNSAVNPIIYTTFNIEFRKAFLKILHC
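D2 cells co-treated with compound plus 50 nM dopamine (EC20) for 90 min at 37 deg C to detect potentiation. Beta-arrestin recruitment was read as enzyme-fragment luminescence after 1 h at ambient temperature. Full response was set by 57 uM dopamine.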
TRPML1 ag: activates the human TRPML1 channel | 410,000 compounds, 0.12% hits | TRPML1-expressing cells, Ca2+ dye fluorescence, FDSS; host cell line not named in the record; reference of the full effect not given here | activation, % (no concentration beside the values); in the data active = activation above about 50%; inconclusive = about 30% to 50%; inactive = below about 30%; note: 0% is about no effect; the text of the record puts the active cut at 80%
Target sequence (Q9GZU1 whole entry, looked up): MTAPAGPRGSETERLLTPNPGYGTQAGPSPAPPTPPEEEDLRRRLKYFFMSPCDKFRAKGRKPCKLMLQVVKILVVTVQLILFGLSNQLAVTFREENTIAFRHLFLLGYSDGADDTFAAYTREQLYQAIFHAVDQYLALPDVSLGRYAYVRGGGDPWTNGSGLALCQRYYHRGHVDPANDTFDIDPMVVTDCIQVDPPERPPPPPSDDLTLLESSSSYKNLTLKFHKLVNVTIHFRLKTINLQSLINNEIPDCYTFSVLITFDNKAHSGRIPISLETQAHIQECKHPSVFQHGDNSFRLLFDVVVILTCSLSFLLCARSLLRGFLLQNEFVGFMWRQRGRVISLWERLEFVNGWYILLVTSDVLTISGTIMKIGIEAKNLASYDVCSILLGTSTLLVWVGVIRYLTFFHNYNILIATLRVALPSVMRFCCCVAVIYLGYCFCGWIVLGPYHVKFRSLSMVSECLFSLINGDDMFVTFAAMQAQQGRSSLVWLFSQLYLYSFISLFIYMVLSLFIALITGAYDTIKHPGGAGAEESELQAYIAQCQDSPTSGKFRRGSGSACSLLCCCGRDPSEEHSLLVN
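In this qHTS format, compounds were pin-transferred onto Ca8-dye-loaded TRPML1-DL cells induced with Tet overnight, and intracellular Ca2+ fluorescence was recorded kinetically for 110 s after a 10 s baseline. A subsequent 4uM final 54-4 (EC80) addition followed by a second 110 s read served as the antagonist phase.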
D2 agonist: agonists of human D2 dopamine receptor (beta-arrestin) | P14416 | DiscoveRx PathHunter D2 beta-arrestin, luminescence, 90 min; 100% = 57 uM dopamine signal | activation, % (test concentration not listed) | 360,000 compounds, 0.084% hits; in the data active = activation above about 40%; inconclusive = about 15% to 40%; inactive = below about 15%; note: compound concentration not given in the record; the text of the record calls up to 30% inactive
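DiscoveRx PathHunter D2 beta-arrestin cells (2,100/well) attached overnight, then compound-stimulated 90 min at 37 C in HBSS/10 mM HEPES/0.1% Tween-20 buffer; beta-galactosidase complementation read by luminescence after 1 h at ambient temperature. Dopamine 57 uM final (EC100) as control.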
TRPML1 inh: human mucolipin-1 channel inhibition | Q9GZU1 | TRPML1-inducible cells, Ca2+ dye fluorescence, FDSS; stronger effect = lower value; inhibition of EC80 agonist-evoked calcium signal | activity change, negative = inhibition, % (concentration not given with the values) | 390,000 compounds, 0.02% hits | AID 624415; in the data active means activity change below about -50%; inconclusive means about -30% to -50%; inactive means above about -30%;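 note: stimulus is agonist 54-4 at its EC80 concentration; % is set by controls: 0 for no effect and ±100 for the full control effect; the text of the record puts the active cut at -80%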
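Calcium fluorescence in TRPML1-DL cells induced overnight with Tet: a 110 s read after compound pin addition, then a 110 s antagonist read after challenge with 54-4 at 4 uM final (EC80).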
PINK1 expr mod: modulators of PINK1 expression | PINK1 immunofluorescence, high-content cytometry, 24 h | Potency, µM (series often up to 76.6 µM), without a hit: at the highest dose activation (PINK1 increase), hits mostly activators | 410,000 compounds, 0.2% hits | AID 624263; active = well fitted activation curve with a large enough effect; inconclusive = small, poorly fitted or top-dose-only effect; inactive = flat fitted curve, though single readings scatter; cell line not stated here;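 note: potency is the fitted concentration of half-maximal effect; % of control where 0% means no effect; nearly all actives have a fitted effect of over 65% in size; a mitochondrial uncoupler was the plate control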
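Stable cell line treated 24 h with compounds at 5 concentrations (CCCP controls), then fixed and immunostained for PINK1 plus nuclear and cell stains; PINK1 immunofluorescence quantified by laser-scanning microplate cytometry.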
Starred values were filed as active, the others as inactive; ? = inconclusive; / = no result given; [ ] = remark or other dose. This is a random part of the collection; any-hit rate near 1%.

SMILES	Six1-Eya2 blk	D2 potentiator	TRPML1 ag	D2 agonist	TRPML1 inh	PINK1 expr mod
Cc1nn(C(=O)N2CCCCC2)c(C)c1CN1C(=O)c2ccccc2C1=O	4.4	-18.8	0.3	1.2	27.1	-1.0%[38.3 µM]
COc1cccc(C2CC(c3ccccc3OC)n3nc(N)nc3N2)c1 (stereo not given)	-8.6	-1.7	0.5	-2.3	-22.3	-1.9%
Cc1ccc(NC(=O)COC(=O)c2ccc(OCc3c(C)noc3C)cc2)cc1S(=O)(=O)N1CCOCC1	5.5	1.0	-0.3	-1.8	-11.8	-1.1%
NC(=O)CC(NC(=O)Cc1ccc(Br)cc1)c1ccc(NCc2cc(F)ccc2F)c([N+](=O)[O-])c1 (stereo not given)	-4.8	-3.2	0.4	-3.3	-10.0	1.7%
CCCCN(CC)CCNC(=O)c1nn(C)c2c1CS(=O)(=O)c1ccccc1-2	/	/	-0.7	/	7.5	-0.1%
COc1cc(OC)cc(C(=O)NCC(=O)Nc2ccc(OC)c(Cl)c2)c1	-6.3	-16.6	10.8	3.4	-5.2	1.3%
Cc1csc(=O)n1CCC(=O)OCc1nnc(-c2ccc(Cl)cc2)o1	1.6	0.9	0.8	1.5	5.9	0.8%
O=C(Nc1nccs1)c1ccc(Br)o1	-1.9	-8.6	0.6	0.0	3.8	/
CCc1ccc(NC(=O)CSc2nccn2-c2ccc(F)cc2)cc1	/	/	1.7	/	14.7	8.6%
COc1ccc(N2C(=O)C3CCCN3C2c2cc(OC)c(OC)c(OC)c2)cc1 (stereo not given)	5.6	-3.7	0.8	-2.4	-1.6	4.3%
Cc1oc2ccc(NS(=O)(=O)c3ccccc3)cc2c1C(=O)Nc1ccccc1	-2.5	-21.2	4.2	-2.8	-3.3	-0.2%
Cc1ccc(/C=N/Nc2nncn2N)cc1	18.1	9.9	-0.5	?	-10.5	-0.9%
Cc1cccc(NC(=S)N/N=C/c2ccc3c(c2)OCO3)c1	-22.4	4.2	0.9	-3.7	22.8	7.9%
Oc1ccccc1-c1cncn1Cc1ccccc1	4.6	-4.7	-0.3	-3.6	13.6	1.1%
O=C(NC(=S)NC1CCCCCCCCCCC1)c1cccnc1	3.2	-6.0	0.8	1.2	-9.9	-1.9%
N#CCC(=O)N/N=C/c1cc(-c2ccccc2)n(-c2ccc(Cl)cc2)c1-c1ccccc1	-18.7	-8.2	-0.3	-3.4	4.0	1.5%
OC[C@@H]1CN(Cc2ccccc2)C[C@H](n2cnc3c(N4CCN(c5ccccc5)CC4)ncnc32)O1	?	-1.5	-0.6	14.2	/	1.4%
O=S(=O)(c1cccc(-c2n[nH]c(=S)n2-c2ccc(OC(F)(F)F)cc2)c1)N1CCOCC1	-1.0	-6.8	-0.1	-1.7	-6.4	1.1%
Cc1ccc(CN2CCN(Cc3cccn3-c3nccs3)CC2CCO)cc1 (stereo not given)	-2.7	-23.0	0.2	-2.7	1.3	-2.6%
CCSC1(SCC)N=C(N)C2(C#N)C(c3ccc(F)cc3)C12C#N (stereo not given)	4.3	-9.7	0.9	0.8	-12.9	0.7%
O=C(CCCOc1ccccc1)Nc1ccc(Br)cc1	5.0	-13.4	0.0	-3.5	-6.6	0.1%
CSc1ncc(C(=O)NCc2cccc(Br)c2)c(-c2ccccc2)n1	/	/	5.2	/	13.1	5.2%
CC1CC(C)CN(CCOc2ccccc2-c2ccccc2)C1 (stereo not given)	-3.0	-36.0	0.7	-1.4	8.1	10.2%
Cc1ccc2c(c1)N(CCC(=O)NCCN1CCOCC1)C(=O)CO2	3.6	-8.2	-0.4	-2.9	-0.1	/
CCN(c1ccccc1)S(=O)(=O)c1ccc(Cl)c(C(=O)Nc2ccncc2)c1	1.0	-10.5	1.0	-2.8	27.7	-0.1%
CCOc1ccc(S(=O)(=O)Nc2ccc(O)c(Sc3ncn[nH]3)c2)cc1	-2.6	6.3	-1.1	4.2	12.8	-0.5%
CCOC(=O)C1CCN(C(=O)c2cc3c(-c4ccc(OC)c(OC)c4)nn(C)c3s2)CC1	-28.7	-1.2	-0.6	-3.5	0.2	0.5%
O=C(COC(=O)c1cc(Cl)ccc1O)Nc1cc(C(F)(F)F)ccc1N1CCOCC1	1.6	-12.7	2.1	3.6	26.9	0.3%
CCOc1cc(CNC2CCCC2)cc(Cl)c1OCc1ccccc1	9.7	-42.7	-1.0	-3.6	2.5	28.8%
CCn1nc(C)c2c(-c3ccccc3)cc(=O)n(C(C)C(=O)Nc3cc(C)ccc3C)c21 (stereo not given)	/	/	1.7	/	0.7	1.5%
COc1ccc(/C=C2/C(=O)N(c3nc4ccccc4s3)N=C2CSc2ccc(Cl)cc2)cc1	-19.5	11.9	0.2	0.6	-0.9	-0.3%
COc1cc(/C=C2\SC(=S)N(CCC(=O)NCCc3ccccc3)C2=O)cc(OC)c1OC	-1.2	2.3	0.4	2.2	-5.1	5.0%
O=C(CSc1nc2cc(Cl)ccc2o1)N1CCOCC1	-6.7	-24.0	0.1	-0.7	7.1	-0.1%
C(=C\N1CCCCCC1)/c1nnnn1-c1ccc(-c2ccccc2)cc1	-11.2	-5.0	1.8	0.3	2.9	0.9%
CN(C(=O)CN1C(=O)NC2(CCc3ccccc32)C1=O)C1CCS(=O)(=O)C1 (stereo not given)	2.2	24.2	-0.4	1.0	4.3	3.2%
COc1ccc(CCNc2ccc(C)cc2)cc1	-27.6	-2.7	5.8	-1.0	-8.5	6.0%[38.3 µM]
COc1ccccc1C(=O)COC(=O)CSC(C)C(=O)Nc1cc(C)on1 (stereo not given)	2.0	-6.9	0.5	-1.9	16.8	-1.4%
COC1=C(N)C(=O)c2nc(C)ccc2C1=O	-10.7	27.2	-0.3	14.6	16.2	11.7%
Cc1cc(C)cc(-n2ncc3c2CCCC3NC(=O)c2cc(C)[nH]n2)c1 (stereo not given)	11.9	-17.1	0.0	0.4	-13.3	1.6%
Clc1ccc2c(c1)-c1nnc(Br)n1-c1ccccc1S2	-4.4	-18.0	3.1	0.4	35.5	0.4%
CN(C)c1ccc(C2Nc3ccccc3C(=O)N2NS(C)(=O)=O)cc1 (stereo not given)	-7.9	-21.2	-0.2	-1.7	13.7	-2.1%
COc1ccc(-c2cc(C(F)F)nc(-n3nc(C)cc3C)n2)cc1	?	-20.2	-1.2	-4.9	2.5	-1.3%
C=CCn1c(C)cc(C(=O)COC(=O)CCc2cc(OC)c(OC)c(OC)c2)c1C	-18.3	-11.8	2.4	1.9	-1.6	-2.9%
CSc1ncc(C(=O)Nc2cccnc2)c(C(F)(F)F)n1	3.6	-1.1	0.4	4.5	-15.4	2.3%
COc1ccccc1Cc1nc2ccccc2nc1SCC(=O)N1CCN(c2ccccc2)CC1	/	/	0.4	/	-8.9	1.7%
Cc1ccccc1Nc1nc(N)nc(COC(=O)C2CCCCC2)n1	-4.5	-13.5	0.7	-0.5	20.7	2.4%
C[N+](C)(C)CC=O	0.4	-10.8	0.3	-6.3	-3.3	-0.1%
CCOC(=O)c1c(NC(=O)COc2ccccc2C#N)sc2c1CC(C)(C)NC2(C)C	6.2	-4.2	0.8	-3.3	-9.7	-2.2%
COc1ccc(-c2nc3cc(C(C)C)ccc3o2)cc1NC(=O)COc1ccc(C)cc1C	/	/	0.6	/	-22.7	0.4%
CCn1c(SCC(=O)c2c(N)n(C3CC3)c(=O)[nH]c2=O)nnc1-c1ccccc1OC	1.0	0.3	-0.1	-4.8	-9.8	-0.4%
COCC(=O)N/N=C(\C)CC(=O)Nc1ccccc1C(N)=O	5.0	-39.5	-0.4	-2.1	5.3	0.1%
CCN1C(=O)[C@H]2[C@@H](c3ccc(OC)cc3)N3C(=O)CN(Cc4ccccc4)C(=O)[C@@]3(Cc3ccccc3)[C@H]2C1=O	1.2	-7.8	0.5	-3.4	-11.8	0.8%
Cc1noc(NS(=O)(=O)c2ccc(NC(=O)C34CC5CC(C3)CC(n3cnc(Cl)n3)(C5)C4)cc2)c1C	-1.4	3.1	0.0	0.6	7.4	-0.7%
CC(=O)c1nnn(-c2ccc([N+](=O)[O-])cc2C)c1C	-8.7	-3.3	5.6	6.2	-18.0	-0.3%
Cc1nc2c(C)cccn2c(=O)c1NC(=O)COc1ccccc1	1.5	-4.8	-0.3	-7.1	23.0	-1.2%
Cc1cc(C)cc(NC(=O)CN2CCN(c3ncccn3)CC2)c1	-7.0	-3.9	0.1	6.7	-4.5	7.7%[38.3 µM]
CCOC(=O)c1[nH]c2ccc(OC)cc2c1NC(=O)c1ccccc1C(=O)O	-5.8	4.0	-0.5	11.4	9.7	2.0%
NC1=NC2(CCCCC2)N(c2cccc(Cl)c2)C(N)=N1	0.1	-8.5	-0.2	-4.9	-12.2	15.9%[38.3 µM]
O=C(CC[C@H]1O[C@@H](n2ccc(=O)[nH]c2=O)[C@H](O)[C@@H]1O)NCC1CCCO1 (stereo not given in full)	-0.5	-1.7	-0.1	-4.2	-7.2	0.2%
CC(=O)N1CCN(S(=O)(=O)c2c(C)n(C)c(=O)n(C)c2=O)CC1	-5.8	-5.5	0.1	-1.7	3.6	0.6%

In a second layout: entries from further up.
mol | Six1-Eya2 blk | D2 potentiator | TRPML1 ag | D2 agonist | TRPML1 inh | PINK1 expr mod
CCc1ccc(NC(=O)CSc2nccn2-c2ccc(F)cc2)cc1 | / | / | 1.7 | / | 14.7 | 8.6%
CC1CC(C)CN(CCOc2ccccc2-c2ccccc2)C1 (stereo not given) | -3.0 | -36.0 | 0.7 | -1.4 | 8.1 | 10.2%

(list continues)
SMILES	Six1-Eya2 blk	D2 potentiator	TRPML1 ag	D2 agonist	TRPML1 inh	PINK1 expr mod
COc1ccccc1C(=O)COC(=O)/C=C/c1ccccc1	24.6	7.0	2.9	-0.7	-4.6	-1.4%
CC(CCN1CCN=C1Nc1ccccc1)c1ccccc1 (stereo not given)	4.5	-25.2	0.2	-3.6	-20.2	1.2%
Cn1nc(-c2ccc(S(N)(=O)=O)s2)cc1C(F)(F)F	1.6	-1.9	0.6	-0.8	-0.5	0.0%
CC(C(=O)Nc1ccccn1)N1C(=O)c2ccccc2S1(=O)=O (stereo not given)	5.5	-17.6	-0.6	-1.7	5.8	-1.7%
Cc1cc(C(=O)C(=O)N(C)C)c(C)n1-c1ccc(Cl)cc1	-2.2	-4.4	-0.6	0.5	-3.0	-0.3%
COC(=O)C1=C(O)/C(=C\c2ccc(CNS(=O)(=O)c3ccccc3)o2)N=C1C	2.7	-10.8	4.1	2.1	-3.5	0.7%
CC(C)COc1cccc(-c2cc(C(=O)Nc3ccon3)c3ccccc3n2)c1	14.6	4.5	0.5	2.8	7.9	6.6%
COc1ccccc1N1CCN(S(=O)(=O)CCNC(=O)Cc2ccc(Cl)cc2)CC1	/	/	0.9	/	20.5	3.3%
O=C(NC1CCCCC1)C1CCC(=O)N(C2CC2)C1 (stereo not given)	2.2	-6.9	-0.4	-1.4	17.0	-1.1%
CC(=O)Nc1cccc(NC(=O)Cc2ccc3ccccc3c2)c1	0.9	-4.1	-0.5	7.5	13.1	5.7%
O=C(Cc1ccccc1)Nc1ccccc1C(=O)N1CCN(c2ccccc2)CC1	-1.3	8.3	-0.3	-0.2	13.5	1.8%
